Screens as filed in PubChem BioAssay.
NPYLR7 agonist = mosquito NPYLR7 agonism. activation, % at 10 µM. HEK293T NPYLR7/Galpha15, GCaMP6s calcium fluorescence. AID 1259423. 0.15% of 270,000 active; in the data active = activation above about 40%;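 note: 0% = vehicle and 100% = reference agonist at the receptor; some compounds past the cut are filed as inactive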
NPYLR7 agonist max-min = also measured in NPYLR7 agonist; calls as there; activation, %; measured here: Max-Min RFU normalised activation; some inactives read as strong as hits;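 span of the calcium signal over five minutes; 0% = vehicle and 100% = native peptide agonist; compound fluorescence can raise it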
Active calls of the source: *; & = joins results of further samples. These rows are one share of the data; count on the stated rates, not on these rows.

SMILES | NPYLR7 agonist | NPYLR7 agonist max-min
O=C(c1cn(-c2ccccc2)nn1)N(Cc1ccsc1)CC1CCCO1 (configuration not stated) | -3 | -4
COc1ccc(NC(=O)c2coc(N3CCN(CC(=O)N(C)C)C3=O)n2)cc1 | 1 | -3
COCCN(Cc1ccc2c(c1)OCCCO2)Cc1cccs1 | -3 | -4
CC(C)NCC(=O)NC(=O)NC(C)C | -3 | -4
CSCCC1NC(=O)N(CN2CCc3sccc3C2c2cccs2)C1=O (configuration not stated) | -3 | 0
CC12C=CC(C)(O1)C1C(=O)N(c3ccc(F)cc3)C(=O)C12 (configuration not stated) | 14 | 13
c1ccc(Cc2ccccc2OCC2CCNCC2)cc1 | 10 | 5
Cc1nc(NC(=O)c2cnsn2)sc1Cc1ccccc1F | -6 | -7
COCCn1c(SCc2nc(-c3cc(OC)cc(OC)c3)no2)nc2ccsc2c1=O | -11 | -11
COCCn1cc(C(=O)N2CCN(C(=O)Cc3ccccc3)CC2)c2nn(-c3ccccc3)c(=O)c-2c1 | 1 | -1
O=[N+]([O-])c1ccccc1C=NN1CCN(Cc2ccccc2)CC1 | 2 | -4
CC(c1ccc(F)c(F)c1)N(C)Cc1cn2cc(Cl)ccc2n1 (configuration not stated) | 0 | 2

Record cards, as listed above. Order of screens: NPYLR7 agonist, NPYLR7 agonist max-min
Record of c1ccc(Cc2ccccc2OCC2CCNCC2)cc1 = 10, 5
Record of CC(c1ccc(F)c(F)c1)N(C)Cc1cn2cc(Cl)ccc2n1 (configuration not stated) = 0, 2
Record of O=C(c1cn(-c2ccccc2)nn1)N(Cc1ccsc1)CC1CCCO1 (configuration not stated) = -3, -4
Record of COCCn1cc(C(=O)N2CCN(C(=O)Cc3ccccc3)CC2)c2nn(-c3ccccc3)c(=O)c-2c1 = 1, -1
Record of COCCn1c(SCc2nc(-c3cc(OC)cc(OC)c3)no2)nc2ccsc2c1=O = -11, -11

Further entries
SMILES | NPYLR7 agonist | NPYLR7 agonist max-min
Cc1cc(OC(=O)c2ccc(C(C)(C)C)cc2)c([N+](=O)[O-])c(=O)[nH]1 | 8 | 6
O=C(NCC1CCCO1)C(C1CCCC1)N1CCN(C(=O)CCc2ccccc2)CC1 (configuration not stated) | -7 | -1
CCOC(=O)c1nc2cc(Cl)c(Cl)cc2nc1N1CCN(C(=O)COCCOC)CC1 | 4 | 1
CCOc1ccc(C(=O)Nc2c3c(nn2C)CCC3)cc1 | 19 | 20
COc1ccc(-c2ccc[nH]c2=O)cn1 | 29 | 16
CCOC(=O)N1CCC(OC)c2ccccc2N(C)C(=O)C1 (configuration not stated) | 1 | 0
COc1ccc(Cl)cc1S(=O)(=O)Oc1ccc2ccccc2c1 | 1 | 1
CCOCc1cccc(NC(=O)c2cc(C)n(C(C)(C)C)n2)c1 | 0 | -2
Cc1cc(C)cc(Nc2nc(NCC(C)O)nc3c2cnn3-c2ccccc2)c1 (configuration not stated) | 2 | 0
O=C(O)C1CCSCN1 (configuration not stated) | -22 | -30
CCn1c(=O)[nH]c2sc3c(c2c1=O)CCN(C(=O)Cc1ccc(N(C)C)cc1)C3 | 4 | -2
Cn1cc(Br)cc1C(=O)Nc1ccccn1 | 1 | -2
CCCN(Cc1cc(NC(=O)C2CCCC2)ccc1N(C)C)C(=O)c1ccccc1Cl | 25 | 26
C1CC1C(=NN=C(C1CC1)C1CC1)C1CC1 | 0 | -3
CCOC(=O)c1c(NC(=O)c2cc3nc(-c4ccco4)cc(C(F)(F)F)n3n2)sc2c1CCC(C)C2 (configuration not stated) | -9 | -16
COc1ccc(C(=O)N2CCCC(CO)(Cc3ccccc3C)C2)c(OC)c1 (configuration not stated) | 18 | 20
O=S(=O)(c1ccc(F)cc1)N1CCCC(N2CCN(c3ccccc3F)CC2)C1 (configuration not stated) | -1 | 2
COc1cccc(CNC(=O)Cc2csc(C(C)=O)c2)c1 | 2 | -5
CCOC(=O)N1CCN(C2CCCN(C(=O)c3cccc(Cn4cccn4)c3)C2)CC1 (configuration not stated) | 4&2 | 2&1
CS(=O)(=O)c1ccc(NCCCC(=O)O)c([N+](=O)[O-])c1 | -1 | -1
O=C1CC2(CCN(C(=O)c3cccnc3Oc3ccccc3)CC2)Oc2ccccc21 | -6 | -14
CCn1c(CN(C)CC2CCN(CCc3ccc(OC)cc3)CC2)nc2ccccc21 | 10 | 2
C=c1cc(C)n(CC(=O)Nc2cccc(C)c2C)c(=O)c1=C1N=C(c2ccc(F)cc2)NO1 | 1 | -3
COc1cccc(COC(CN2CCN(S(=O)(=O)c3cccc(Cl)c3)CC2)c2ccc(Cl)cc2)c1 (configuration not stated) | -4 | -4
CCOC(=O)N1CCN(C(=O)CSc2ccc(NC(=O)c3ccccc3F)nn2)CC1 | 12 | 1
COc1ccc(C(=O)Nc2sc3c(c2C(=O)NCC2CCCO2)CCCC3)cc1OC (configuration not stated) | 1 | -1
Cc1cnc(NC(=O)C23CCC(=O)N2c2ccccc2S3)s1 (configuration not stated) | 2 | -2
Cc1c(Cl)cccc1N1CN(C(=O)CNCc2ccc(F)cc2)CC1=O | 18 | 11
CCCCC(O)CN(Cc1c(-c2ccccc2)nn(C)c1Oc1ccccc1OC)C(C)CC (configuration not stated) | -3 | 7
CC(C)SC(NC(=O)OCc1ccccc1)C(=O)NCCSCc1ccccc1 (configuration not stated) | 0 | -6
CCOc1ccc(S(=O)(=O)N2CCCCC2)cc1C(C)CC (configuration not stated) | 2 | 3
O=C(COC(=O)c1ccc(-c2ccc(C(=O)OCC(=O)NC3CC3)s2)s1)NC1CC1 | 4 | 12
CN1CCC2(CC1)CN(C(=O)c1cccc(-c3ncn[nH]3)c1)CCN2C | 23 | 9
CC(C)CC(N)c1nnc2n1CCNCC2 (configuration not stated) | 2 | 1
COc1nc(-c2ccccc2F)n(-c2cccc(NC(=O)c3cccs3)c2)n1 | 25 | 32
Cc1cc(C)cc(N2CCN(C3CCNCC3)CC2=O)c1 | 8 | 6
CCCS(=O)(=O)N1CCN(CCN2C(=O)C(CC)SC2c2cc(OC)ccc2OC)CC1 (configuration not stated) | 14 | 13
COC(=O)C1=C(O)/C(=C\c2cccc(O)c2)SC1=Nc1cccc(F)c1 | -4 | 4
Cc1cccc(CN(Cc2ccc3c(c2)OCO3)Cc2nc(C(=O)NCCN(C)C)co2)c1 | 7 | 15
CC(=O)N(c1cccc(Cl)c1)c1nc(C)cc(C)c1C#N | -4 | -8
Cn1c(=O)n(C)c2cc(CNC3CCC(=O)N(CC4CC4)CC3)ccc21 (configuration not stated) | -5 | -7
O=C(/C=C/c1ccc(C(F)(F)F)cc1)NCc1nnc2ccccn12 | 0 | -1
Cc1c(C)n2c3c(=O)[nH]c(=O)n(C)c3nc2n1CCCN1CCN(c2ccccc2F)CC1 | 3 | -3
CCC1=NN(C(=O)c2ccc(C)o2)C(O)(C(F)(F)F)C1 (configuration not stated) | -3 | -4
CCOC(=O)c1sc(NC(=O)COc2cccc(Cl)c2)nc1C | -8 | -13
Cc1ccc(Cn2nc(-c3ccco3)c3sc(N4CCCC4)nc3c2=O)cc1 | -3 | -5
Cn1ccnc1C(NC(=O)CC(C)(C)C)c1ccccc1 (configuration not stated) | 2 | 2
O=C(Nc1nnc(SCc2cccs2)s1)C1CCCC1 | 7 | 6
C=CCOCC(O)CN(CCc1nc(-c2ccc(C)c(Cl)c2)no1)Cc1ccccc1 (configuration not stated) | -3 | -3
C=CCC1(O)C(=O)Nc2ccccc21 (configuration not stated) | 0 | 7
CCn1c(=O)c2c(nc3n(-c4ccc(N(C)C)cc4)c(C)cn23)n(C)c1=O | 2 | 9
COc1cccc(CN2CCN(c3ccc(C)cc3C)C(=O)C2C)c1 (configuration not stated) | 0 | 4
CCCCNC(=O)N(CC)CC(=O)Nc1cc(-c2ccccc2)nn1-c1ccc(OC)cc1 | 17 | 18
Cc1ccc(NC(=O)Cn2nc3c(=O)n(-c4ccc(Br)cc4)ccn3c2=O)cc1 | 6 | 3
CNC(=O)NC(=O)C(C)Sc1ncc(-c2ccc(F)cc2)n1CC(C)C (configuration not stated) | -3 | -6
Cc1csc(NC(=O)CCn2c(=O)oc3ccc(Cl)cc32)n1 | 8 | 12
Cc1cc(C(=O)N2CCN(c3nc4c(F)cccc4s3)CC2)n(C)n1 | 6 | 4
CCCNC(=O)N1CCN(c2cccc(C(F)(F)F)c2)C(=O)C1C (configuration not stated) | 4 | 8
CCCN1C(=O)NC(c2ccccc2)C(C(C)=O)=C1C (configuration not stated) | 5 | 2
O[C@@H]1C[C@@H]2CO[C@@H](c3ccccc3)C[C@@]2(O)[C@H]1N1CCN(c2cnccn2)CC1 | 1 | 13

Molecules listed so far containing an aryl thioether with sulfur outside any ring, in the order listed:
SMILES | NPYLR7 agonist | NPYLR7 agonist max-min
COCCn1c(SCc2nc(-c3cc(OC)cc(OC)c3)no2)nc2ccsc2c1=O | -11 | -11
CCOC(=O)N1CCN(C(=O)CSc2ccc(NC(=O)c3ccccc3F)nn2)CC1 | 12 | 1
O=C(Nc1nnc(SCc2cccs2)s1)C1CCCC1 | 7 | 6
CNC(=O)NC(=O)C(C)Sc1ncc(-c2ccc(F)cc2)n1CC(C)C (configuration not stated) | -3 | -6

Next records
SMILES | NPYLR7 agonist | NPYLR7 agonist max-min
COc1ccc(NS(=O)(=O)c2cc(NC(=O)CSC)ccc2OC)cc1 | -9 | -11
Cc1ccc(-c2ccc(C(=O)N(C)CCN(C)C)c(NCC3CC3)n2)cc1C | -2 | -14
CC1=C[C@@H](CNC(=O)COCC(=O)O)[C@H](C(C)C)C[C@H]1CC(=O)NCc1ccc(F)cc1 | -11 | -15
O=c1c2cnc3ncnn3c2ccn1-c1ncn[nH]1 | 7 | 12
N#CCCNc1ccc2c(c1)OCCO2 | 3 | 1
COC(=O)CCCCC(=O)N1CCN(C(C)c2ccccc2)CC1 (configuration not stated) | 6 | 6
Cc1cc(C)cc(C(=O)Oc2coc(CSc3nc(C)cc(C)n3)cc2=O)c1 | -8 | -7
CC(C)c1cc(C(=O)N(Cc2ccsc2)CC2CCCO2)no1 (configuration not stated) | -2 | -4
CN(Cc1nc2ccccc2s1)c1cn[nH]c(=O)c1Cl | -3 | 0
Cc1cc(C(=O)N2Cc3ccccc3C2)cc(S(N)(=O)=O)c1C | -2 | -2
O=c1[nH]c2ccccc2n1CN(Cc1ccc(F)cc1)C1CC1 | -1 | -2
CCN(CC)CCNC(=O)C(=O)NCC(c1cccnc1)N1CCN(c2ccc(OC)cc2)CC1 (configuration not stated) | 3 | 2

Brought forward from above: 5 compounds, followed by the next part.
SMILES | NPYLR7 agonist | NPYLR7 agonist max-min
CC(C)c1cc(C(=O)N(Cc2ccsc2)CC2CCCO2)no1 (configuration not stated) | -2 | -4
CN(Cc1nc2ccccc2s1)c1cn[nH]c(=O)c1Cl | -3 | 0
Cc1cc(C(=O)N2Cc3ccccc3C2)cc(S(N)(=O)=O)c1C | -2 | -2
O=c1[nH]c2ccccc2n1CN(Cc1ccc(F)cc1)C1CC1 | -1 | -2
CCN(CC)CCNC(=O)C(=O)NCC(c1cccnc1)N1CCN(c2ccc(OC)cc2)CC1 (configuration not stated) | 3 | 2
COc1ccccc1/C=C/C=C1\N=C(c2ccc(C)cc2)OC1=O | -1 | -4
CCc1nccn1CC(=O)N1CCCC(Nc2ccc(F)cc2)C1 (configuration not stated) | 1 | -1
Cc1cccc(C)c1Cn1c(C)c(C(=O)NCc2ccc(C#N)cc2)sc1=O | 1 | 0
Cc1nn(C(C)C(=O)NC2CCCCC2)c(=O)c2cc3occc3n12 (configuration not stated) | -1 | 1
COCCN(CC(=O)N(CCc1c[nH]c2ccccc12)Cc1ccccc1OC)C(=O)C(C)C | 11 | 13
CC(=O)Nc1ccc(C(=O)N(C)Cc2nc(C)no2)c(C)c1 | 12 | 3
CC(=O)N1CCN(C(C)C(=O)Nc2ccc(C(F)(F)F)cc2)CC1 (configuration not stated) | 12 | 7
CC(C)(C)CCNC(=O)/C=C/c1ccc2c(c1)OCO2 | -6 | -16
COc1cccc(-c2cc(-c3ccc(C(=O)NCc4ccccc4Cl)cc3)[nH]n2)c1 | 0 | 10
CC(C)Oc1ccc(Nc2nccc3[nH]c(-c4ccccc4)cc23)cc1 | -2 | -8
N#CCOc1ccc(NC(=O)N2CCC(C(=O)c3ccccc3)CC2)cc1 | 3 | 2
COc1cccc(CN2CCCC3(CCN(C(=O)CN4CCCC4=O)C3)C2)c1OC (configuration not stated) | 3 | -3
Nc1nc(-c2cccnc2)nc(-c2cccnc2)n1 | -10 | -19
CC(C)[C@H]1CN(C)CCN1c1nc2nonc2nc1NCc1cccs1 | 17 | 7
Clc1ccc(N=C2SCCN2C2CCCCC2)cc1 | -7 | -6
Cc1ccc(NC(=O)c2csc(NS(=O)(=O)c3cccs3)n2)cc1F | -2 | -3
Cc1ccc(C(=O)CSc2nccn(-c3cccc4ccccc34)c2=O)cc1 | 6 | -2
CN(Cc1ccco1)C(=O)C(C1CCCC1)N1CCN(C(=O)c2ccc([N+](=O)[O-])cc2)CC1 (configuration not stated) | 8 | 13
COCCCN(CC(=O)N1CCc2sccc2C1c1ccc(Cl)cc1)S(=O)(=O)c1ccc(Br)cc1 (configuration not stated) | 4 | 22
O=c1n(-c2ccccc2)c(=O)n2n1CCC2 | -4 | -3
COCc1nc2nccc(-c3ccc(-c4ccccc4)cc3)n2n1 | -7 | -13
CC(C)c1ccc(NC2CCCN(C(=O)Cc3c[nH]c(=O)[nH]c3=O)C2)cc1 (configuration not stated) | -5 | -5
OC1/C=C\CCCCC1O (configuration not stated) | -7 | -11
COc1ccc(Br)cc1/C=C/C(=O)N1CCC(c2ccccc2)CC1 | -7 | -10
Fc1ccc(Nc2cc3[nH]c(-c4cccc(F)c4)cc3cn2)cc1 | 5 | 10
Cc1nc(C(C)C)nc(C)c1OCc1nc(-c2ccco2)oc1C | 19 | 7
C=C(C)CN(CC)Cc1nc(-c2ccc(OC)c(C)c2C)oc1C | 1 | 8
COC(=O)C1=C(C)N(CC2CCCO2)C(=O)C1 (configuration not stated) | 7 | 3
Cc1nc2c(o1)N=C(N)C(C#N)C21CCSCC1 (configuration not stated) | -2 | -3
